CtBP-E1A blk: blocks the CtBP interaction with E1A | hit rate 0.49% among 340,000 | activity change, % (concentration not given with the values) | AlphaScreen GST-E1A/His-CtBP binding, 1536-well; hits give low values; control for the full effect not named in the record | AID 651724; in the data active means activity change below about -65%; inconclusive means about -30% to -65%; inactive means above about -30%; further: on the % scale 0 is the no-effect control and ±100 the full control effect
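Homogeneous bead-based format: GST-tagged E1A captured on glutathione donor beads, His-tagged CtBP on nickel acceptor beads; compounds precede bead addition by 2 h at 37 °C.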
TRPV1 PAM: enhances activation of the human vanilloid receptor TRPV1 | Q8NER1 | TRPV1-expressing cells, Fluo-8 calcium influx, capsaicin EC20 potentiation; host cell line not named in the record; control for the full effect not named in the record | potentiation, % at 8.33 µM | hit rate 0.02% among 320,000; active means potentiation above 80%; inconclusive means 30% to 80%; inactive means below 30%; further: 0% is about no effect
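TRPV1-expressing cells were cultured overnight at 35.5C and loaded with Fluo-8 calcium dye for 40 to 90 min at room temperature. After a 10 s baseline, compound was added and calcium influx was read kinetically for 3 min (ex 480/em 520 nm).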
D2 PAM: potentiates the human D2 dopamine receptor allosterically | P14416 | DiscoveRx D2 beta-arrestin cells, luminescence, 90 min; 100% = 57 uM dopamine signal | potentiation, % (test concentration not listed) | hit rate 0.23% among 360,000; active = potentiation of 50% or more; inconclusive = 30% to 50%; inactive = 30% or less;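 further: compound concentration not given in the record; tested on top of an EC20 dose of dopamine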
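PathHunter beta-arrestin assay in DiscoveRx D2 cells. Compounds were added with an EC20 of dopamine (50 nM final) for 90 min at 37 deg C. Luminescence was read 1 h after detection reagent, with 57 uM dopamine as the EC100 control.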
Six1-Eya2 blk: blocks human Six1 binding to Eya2. hit rate 0.56% among 360,000. activity change, % (no concentration beside the values). AlphaScreen GST-Six1/His-Eya2 binding, biochemical; hits give low values; control for the full effect not named in the record. Q15475+O00167. AID 651725; in the data active = activity change below about -65%; inconclusive = about -30% to -65%; inactive = above about -30%; further: on the % scale 0 is the no-effect control and ±100 the full control effect; compound concentration not given in the record
Target sequence (O00167 whole entry, looked up): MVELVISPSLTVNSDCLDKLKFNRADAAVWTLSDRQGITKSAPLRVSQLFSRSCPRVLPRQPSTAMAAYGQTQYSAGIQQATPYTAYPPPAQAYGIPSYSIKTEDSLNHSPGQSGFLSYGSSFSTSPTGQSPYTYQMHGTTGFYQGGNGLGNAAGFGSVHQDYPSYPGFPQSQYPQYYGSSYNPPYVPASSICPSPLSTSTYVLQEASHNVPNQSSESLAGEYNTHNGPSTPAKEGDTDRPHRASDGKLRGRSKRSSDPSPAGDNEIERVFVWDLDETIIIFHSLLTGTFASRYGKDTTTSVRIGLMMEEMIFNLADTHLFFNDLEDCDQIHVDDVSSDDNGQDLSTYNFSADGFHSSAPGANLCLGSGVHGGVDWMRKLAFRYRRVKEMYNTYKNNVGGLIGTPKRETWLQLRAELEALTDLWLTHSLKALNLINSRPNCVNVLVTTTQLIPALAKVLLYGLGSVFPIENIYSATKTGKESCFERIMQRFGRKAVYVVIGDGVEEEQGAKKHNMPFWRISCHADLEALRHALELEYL
Target sequence (Q15475 whole entry, looked up): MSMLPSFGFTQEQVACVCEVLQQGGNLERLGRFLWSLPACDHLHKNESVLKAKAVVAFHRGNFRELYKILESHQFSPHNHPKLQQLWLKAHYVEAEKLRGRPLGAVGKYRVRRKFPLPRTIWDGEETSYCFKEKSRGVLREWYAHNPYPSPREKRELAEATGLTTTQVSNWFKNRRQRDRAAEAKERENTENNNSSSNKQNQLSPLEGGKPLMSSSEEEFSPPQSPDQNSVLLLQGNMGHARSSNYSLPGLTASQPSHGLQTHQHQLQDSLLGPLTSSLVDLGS
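Homogeneous AlphaScreen proximity assay pairing GST-Six1 with His-tagged Eya2 (added as 5X mix: 250 nM and 500 nM) in 50 mM Tris pH 8.0, 300 mM NaCl, 1 mM TCEP. Glutathione donor and nickel acceptor beads; 1 h, 37 °C, dark.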
TRPML1 inh: human mucolipin-1 channel inhibition; Q9GZU1; TRPML1-inducible cells, Ca2+ dye fluorescence, FDSS; hits give low values; inhibition of EC80 agonist-evoked calcium signal; activity change, negative = inhibition, % (no concentration beside the values); hit rate 0.02% among 390,000; AID 624415; in the data active means activity change below about -50%; inconclusive means about -30% to -50%; inactive means above about -30%;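 further: stimulus is agonist 54-4 at its EC80 concentration; on the % scale 0 is the no-effect control and ±100 the full control effect; compound concentration not given in the record; the text of the record puts the active cut at -80%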
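Tet-induced TRPML1-DL cells loaded with Ca8 no-wash calcium dye were read kinetically on FDSS. Compound addition was followed by EC80 agonist 54-4 (4 uM final); inhibition was read over 110 s.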
TRPML1 agonist: activates the human TRPML1 channel. Q9GZU1. TRPML1-expressing cells, Ca2+ dye fluorescence, FDSS; host cell line not named in the record; reference of the full effect not given here. activation, % (no concentration beside the values). hit rate 0.12% among 410,000; in the data active = activation above about 50%; inconclusive = about 30% to 50%; inactive = below about 30%; further: 0% is about no effect; the text of the record puts the active cut at 80%
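Kinetic FDSS Ca2+ read in Tet-induced TRPML1-DL cells (ABD Ca8 dye plus quencher, 45-90 min RT loading): baseline, then compound, then 110 s agonist window; EC80 agonist 54-4 at 4uM final added afterwards for a 110 s antagonist window.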
* hit, by the source's call; ? = inconclusive; · = not tested or not shown; & = joins results of further samples.

SMILES	CtBP-E1A blk	TRPV1 PAM	D2 PAM	Six1-Eya2 blk	TRPML1 inh	TRPML1 agonist
CC(=O)Nc1ccc(S(=O)(=O)NCC2CCC(C(=O)NCc3ccccc3)CC2)cc1 (centres undefined)	·	-1	-11	9	-17&12	0.3&2.0
COCCCN(Cc1ccco1)C(=O)Cn1ncc2c(=O)oc3ccc(C)cc3c21	2	0	14	1	·	·
O=c1[nH]c(N2CCOCC2)nc2c1CCCC2	2	8	-6	1	1	-1.1
COc1ccc(CCn2ccc(O)c(Cc3ccc(Cl)cc3Cl)c2=O)cc1OC	-17	5	-39	6	28	1.8
Cc1ccc(C(=O)NCc2ccco2)cc1S(=O)(=O)N1CCCC1	11	-5	-10	1	-20	-0.3
O=C(NCc1ccccc1Cl)c1ccc(CSc2nc3ccncc3[nH]2)cc1	?	3	2	-6	-10	2.9
Cc1cccc(C)c1Nc1nnc(SCC(=O)c2ccc(Br)s2)s1	-6	6	3	2	-27	1.2
COc1ccc(CNC(=O)c2cncc(Br)c2)cc1	-5	4	-5	2	-16	-0.4
CSc1nnc2c3cc(F)ccc3n(C)c2n1	·	15	-9	-10	-17	-0.5
COc1ccc(C(=O)Nc2ccc(S(=O)(=O)NC(C)C)cc2)cc1	-3	-29	10	-4	27	0.0
O=C1Nc2ccc(Br)cc2C1Cc1ccccc1F (centres undefined)	5	-6	-19	0	-3	-0.1
CSC(=S)N(C)C1CCS(=O)(=O)C1 (centres undefined)	-7	-2	5	4	11	-0.5
CCOC(=O)c1c(C=O)c(C)n(Cc2ccc(C)cc2)c1C	-13	4	2	-15	-5	1.1
Cc1ccc(-c2cc(C(=O)NCCCN3CCOCC3)no2)cc1	6	-6	2	1	6	4.4
COc1ccc(NC(=O)[C@H](COCc2ccccc2)NC(=O)OC(C)(C)C)cc1	1	·	-11	12	36	0.6
CC(=O)Nc1cccc(C(=O)/C=C/c2ccc(C)cc2)c1	5	-23	-16	8	-21	-0.4
O=C(Nc1ccccc1)c1cc(S(=O)(=O)N2CCCCC2)ccc1N1CCOCC1	·	15	16	-11	13	-1.2
CCOc1ccccc1NC(=O)CSc1nnc(-c2cccnc2)o1	-7	-2	11	8	11	1.6
CCOCC(=O)Nc1ccc(S(=O)(=O)N2CCC(c3nc4ccccc4[nH]3)CC2)cc1	3	-6	19	-5	-7	0.0
O=C(Cn1cnc([N+](=O)[O-])c1)Nc1cc(Oc2ccc(Cl)cc2Cl)cc([N+](=O)[O-])c1	-20	4	8	-25	7	-0.7
Cc1ccn(CC(=O)N2CCCC(N3CCN(c4ccc(F)cc4)CC3)C2)n1 (centres undefined)	5	4	3	2	5	-0.4
Cc1ccc(C(=O)Nc2ccccc2C(=O)NCc2ccccc2)cc1	-3	3	-14	3	1	0.5
COc1ccc(N(C(=O)c2cccnc2)S(=O)(=O)c2cc(OC)ccc2OC)cc1	4	8	13	0	-4	0.0
N=C1/C(=C\c2ccc(Br)o2)C(=O)N=C2SC(CC(=O)N3CCOCC3)=NN12	-15	11	-5	-10	-15	1.3
Cc1nn(C)c(C)c1NS(=O)(=O)c1ccc(Cl)cc1	9	-2	10	2	12	0.1

Looked up one by one from above, 5 records:
SMILES	CtBP-E1A blk	TRPV1 PAM	D2 PAM	Six1-Eya2 blk	TRPML1 inh	TRPML1 agonist
Cc1nn(C)c(C)c1NS(=O)(=O)c1ccc(Cl)cc1	9	-2	10	2	12	0.1
Cc1ccc(C(=O)NCc2ccco2)cc1S(=O)(=O)N1CCCC1	11	-5	-10	1	-20	-0.3
CC(=O)Nc1cccc(C(=O)/C=C/c2ccc(C)cc2)c1	5	-23	-16	8	-21	-0.4
COc1ccc(C(=O)Nc2ccc(S(=O)(=O)NC(C)C)cc2)cc1	-3	-29	10	-4	27	0.0
O=C(NCc1ccccc1Cl)c1ccc(CSc2nc3ccncc3[nH]2)cc1	?	3	2	-6	-10	2.9

(listing goes on)
SMILES	CtBP-E1A blk	TRPV1 PAM	D2 PAM	Six1-Eya2 blk	TRPML1 inh	TRPML1 agonist
COCC(=O)Nc1c(C(=O)Nc2ccccc2OC)oc2ccccc12	1	-18	-7	6	18	2.3
Cc1[nH]nc2ncc(C(=O)c3cc(Cl)cc(Cl)c3O)cc12	-25	15	-5	-19	24	-0.4
COc1ccc(NC(=O)N(C2CCCCC2)C2CCN(C(C)C)CC2)c(OC)c1	-2	?	11	4	-5	-1.4
O=C(CSc1nnnn1-c1ccccc1)CSc1nnnn1-c1ccccc1	2	16	-18	1	-9	0.9
COCCn1c(SCc2ccc(C)cc2)nc2c1c(=O)[nH]c(=O)n2C	-7	·	-12	2	-24	2.2
COCc1cc(CN2CCN(C)CC2)c(O)c2ncccc12	-93*	17	21	-92*	-7	-0.9
O=C(CSc1nc(NS(=O)(=O)c2ccccc2)cc(=O)[nH]1)Nc1ccccc1C(F)(F)F	1	10	-3	-1	25	1.1
COc1ccc(CC(N)c2csc(NC(=O)Cc3ccccc3)n2)cc1 (centres undefined)	-10	·	-5	-12	·	0.7
COC(=O)c1ccc(Cn2nnc3c(=O)[nH]c(C4CCN(S(=O)(=O)c5cc(C)ccc5C)CC4)nc32)cc1	3	-9	-2	-15	2	-1.1
O=C(CSc1nnc(-c2ccncc2)n1CC1CCCO1)Nc1ccccc1Cl (centres undefined)	1	0	-7	4	0	-0.8
CCOc1ccc(NC(=O)CC(Cc2cc(C)cc(C)c2)C(=O)O)cc1 (centres undefined)	1	2	-2	6	-6	-0.2
COc1ccc(OCC(=O)N2CCN(C(=O)c3ccc(F)cc3)CC2)cc1	-15	-2	5	-6	-1	-0.4
Cc1ccc(S(=O)(=O)CC(=O)N2CCN(c3ccccc3F)CC2)cc1	-9	-2	-22	24	-2	0.1
COc1cccc(-n2nc(-c3ccnn3-c3cccc(Cl)c3)c(=O)n(C)c2=O)c1	·	-24	-44	-2	6	-0.5
CC1CC(=O)Nc2ccccc2N1S(=O)(=O)c1ccccc1 (centres undefined)	2	-5	3	4	-21	-0.4
CN(CC(=O)Nc1ccccc1Br)C(=O)c1cc2c(s1)CCCCC2	-1	-3	-7	-1	-1	3.0
O=C(CCSc1ccccc1)N1CCN(c2ccccc2)CC1	20	-5	0	10	-5	0.1
Cc1cc([N+](=O)[O-])ccc1NCc1ccc2c(c1)OCCO2	-10	-1	-7	-25	15	1.8
O=C(c1cccc(F)c1)N1CCN(S(=O)(=O)c2ccccc2)CC1	5	?	0	1	-13	-1.0
O=C(CSc1nccc(=O)[nH]1)N1c2ccccc2CCc2ccccc21	13	?	-4	-1	-2	-0.1
O=C(O)c1cccc(Oc2ccc(C(=O)O)c([N+](=O)[O-])c2)c1	22	·	-9	-12	5	-0.5
Cc1nc2sc3c(c2c(=O)n1NC(=O)CCl)CCCC3	-15	-2	-10	-5	7	0.1
CCOC(=O)c1c(NC(=O)CNCC(O)CO)sc(C)c1C (centres undefined)	-1	-2	-15	1	12	-0.3
COc1ccc(C(O)c2nc(-c3ccccc3)cs2)cc1 (centres undefined)	8	·	-1	2	·	1.0
CCCN(C(=O)COc1ccc(C(C)=O)cc1OC)C1CCS(=O)(=O)C1 (centres undefined)	1	-2	-2	-2	6	4.0

Part of the list above in order of molecular weight, rising.
SMILES	CtBP-E1A blk	TRPV1 PAM	D2 PAM	Six1-Eya2 blk	TRPML1 inh	TRPML1 agonist
CSC(=S)N(C)C1CCS(=O)(=O)C1 (centres undefined)	-7	-2	5	4	11	-0.5
Cc1cc([N+](=O)[O-])ccc1NCc1ccc2c(c1)OCCO2	-10	-1	-7	-25	15	1.8
COc1ccc(NC(=O)N(C2CCCCC2)C2CCN(C(C)C)CC2)c(OC)c1	-2	?	11	4	-5	-1.4
O=C(NCc1ccccc1Cl)c1ccc(CSc2nc3ccncc3[nH]2)cc1	?	3	2	-6	-10	2.9
Cc1cccc(C)c1Nc1nnc(SCC(=O)c2ccc(Br)s2)s1	-6	6	3	2	-27	1.2
O=C(CSc1nc(NS(=O)(=O)c2ccccc2)cc(=O)[nH]1)Nc1ccccc1C(F)(F)F	1	10	-3	-1	25	1.1

Next section
SMILES	CtBP-E1A blk	TRPV1 PAM	D2 PAM	Six1-Eya2 blk	TRPML1 inh	TRPML1 agonist
Cc1nnc(SCCn2c(N3CCN(C)CC3)nc3c2c(=O)n(C)c(=O)n3C)s1	-3	-14	-11	3	-4	0.3
COc1ccc(C(=O)NC(=S)Nc2ccc(S(=O)(=O)Nc3cc(OC)ncn3)cc2)cc1	-26	1	-2	-9	11	0.6
CC1CCCCC1NC(=O)CN1C(=O)NC(C)(c2cc(F)ccc2F)C1=O (centres undefined)	·	-1	-6	1	-8	-1.2
CCOC(=O)c1ccc(NC(=S)NCc2ccc(F)cc2)cc1	·	·	-24	-3	0	0.2
CCNC(=S)N1CCN(S(=O)(=O)c2ccccc2C(F)(F)F)CC1	5	-6	12	-5	23	-0.1
c1ccc(CCC2=NCCn3cccc32)cc1	-9&-4	-3	-19&-21	19&-4	-6&38	-0.3&0.4
O=C(O)COc1ccc(/C=C/c2ccc3cccc([N+](=O)[O-])c3n2)cc1	-22	10	-5	?	1	-1.0
Cc1cccc(C(=O)Nc2ccc(N3CCC(CCN4CCOCC4)CC3)c(C(=O)O)c2)c1	·	-3	·	·	-5	1.5
COc1ccc(O)c(/C=N/Nc2nc(Nc3ccccc3)nc(-n3nc(C)cc3C)n2)c1	?	22	-55	?	7	5.8
O=C(Nc1cc(S(=O)(=O)N2CCCC2)ccc1Cl)C1=COCCO1	6	-10	-1	6	6	0.0
CC(=O)n1cc([C@@H]2C=C(C(=O)Nc3ccccc3)O[C@H](OCc3ccc(CO)cc3)C2)c2ccccc21	-6	24	1	-16	6	-0.5
CCOC(=O)C1CCN(c2ccc(Cl)nn2)CC1	4	16	-4	4	9	-0.7
CCC(CC)NC(=O)CN1CCN(S(=O)(=O)c2cccs2)CC1	8	-12	10	5	-1	-0.2
COc1ccccc1NS(=O)(=O)c1cc(NC(=O)C2CCCO2)ccc1C (centres undefined)	3	·	-22	-3	16	0.9
Cc1sc2nc(CSCC(=O)Nc3ccc(C(=O)N(C)C)cc3)[nH]c(=O)c2c1C	-9	18	-3	-1	18	2.2
CCc1noc(C)c1C(=O)Nc1nc2c(C)cc(C)cc2s1	-2	-1	-25	10	2	1.8
COC(=O)c1cc(NC(=O)c2ccccc2)c(=O)oc1C/C=N\OCc1ccc(Cl)cc1Cl	-15	3	-32	-23	2	1.0
CC(=O)NC(=S)NNC(=O)CCc1ccccc1	-5	-25	-9	-7	-10	0.9
CCCOc1ccc(F)cc1-c1cc(C(=O)NC2CCCCC2)[nH]n1	5	·	-21	2	·	-0.7

Compound profiles, from the list above. Values in the order: CtBP-E1A blk	TRPV1 PAM	D2 PAM	Six1-Eya2 blk	TRPML1 inh	TRPML1 agonist
Shown for O=C(NCc1ccccc1Cl)c1ccc(CSc2nc3ccncc3[nH]2)cc1 : ?	3	2	-6	-10	2.9
Shown for CCOC(=O)C1CCN(c2ccc(Cl)nn2)CC1 : 4	16	-4	4	9	-0.7
Shown for COc1ccc(CCn2ccc(O)c(Cc3ccc(Cl)cc3Cl)c2=O)cc1OC : -17	5	-39	6	28	1.8
Shown for CCOc1ccc(NC(=O)CC(Cc2cc(C)cc(C)c2)C(=O)O)cc1 (centres undefined) : 1	2	-2	6	-6	-0.2

An unsorted share of the library. About 0.95% of those tested had a hit in this group.
